From PubChem
E coli growth = blocks Escherichia coli growth. OD600, 23 h; active compounds read low. OD600 absorbance (no concentration beside the values). 330,000 compounds, 0.21% hits. AID 1053175;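 active = OD600 absorbance below the run mean of sample wells minus 3.6 SD, in any replicate, cut at about 0.56 in these data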;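 also: stock transfer was 300 nL into about 60 µL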
FGF22 binding = binders of recombinant human FGF22 by thermal shift; Q9HCT0; SYPRO orange fluorescence; percent of sucrose octasulfate shift, DMSO zero; calls only at 9.99 µM; 340,000 compounds, 1.5% hits; AID 651658;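 active = melting point raised past a set limit in the mean and every replicate; inconclusive = no clear call; three in four hits are not shown here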
Target sequence (Q9HCT0 whole entry, looked up): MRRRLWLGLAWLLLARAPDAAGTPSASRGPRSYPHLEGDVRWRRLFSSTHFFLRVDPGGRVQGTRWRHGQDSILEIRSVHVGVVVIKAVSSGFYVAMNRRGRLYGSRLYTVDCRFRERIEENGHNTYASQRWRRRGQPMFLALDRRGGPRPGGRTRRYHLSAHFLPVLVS
HNF4A DNA FP = change in binding of human HNF4 alpha to DNA. activity change, % at 10 µM. HNF4a-FITC DNA binding, fluorescence polarization, 1 h. 360,000 compounds, 0.3% hits; in the data active = activity change above about 30%, passing the limit was not always enough;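 also: controls were the assay level and a saturating level of protein; the project sought stronger binding though the title names inhibitors; some compounds called inactive have numbers as strong as hits; positive values seem to mean higher polarization but the record does not say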
MLL AF4-AF9 inh = MLL-AF4/AF9 protein interaction inhibition | inhibition, % at 10 µM | AlphaScreen, biotin-AF4 peptide binding to FLAG-AF9 | AID 651704 | 350,000 compounds, 0.47% hits | P42568;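 active = every replicate reaching a set inhibition limit, whatever the replicate mean, cut at about 25% in these data; inconclusive = mean inhibition reaches that limit but some replicates miss it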;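 also: 0% = plate neutral control median and 100% = total signal loss; the record names both 10 and 1 µM as test concentration; the first replicate is given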
Target sequence (P42568 whole entry, looked up): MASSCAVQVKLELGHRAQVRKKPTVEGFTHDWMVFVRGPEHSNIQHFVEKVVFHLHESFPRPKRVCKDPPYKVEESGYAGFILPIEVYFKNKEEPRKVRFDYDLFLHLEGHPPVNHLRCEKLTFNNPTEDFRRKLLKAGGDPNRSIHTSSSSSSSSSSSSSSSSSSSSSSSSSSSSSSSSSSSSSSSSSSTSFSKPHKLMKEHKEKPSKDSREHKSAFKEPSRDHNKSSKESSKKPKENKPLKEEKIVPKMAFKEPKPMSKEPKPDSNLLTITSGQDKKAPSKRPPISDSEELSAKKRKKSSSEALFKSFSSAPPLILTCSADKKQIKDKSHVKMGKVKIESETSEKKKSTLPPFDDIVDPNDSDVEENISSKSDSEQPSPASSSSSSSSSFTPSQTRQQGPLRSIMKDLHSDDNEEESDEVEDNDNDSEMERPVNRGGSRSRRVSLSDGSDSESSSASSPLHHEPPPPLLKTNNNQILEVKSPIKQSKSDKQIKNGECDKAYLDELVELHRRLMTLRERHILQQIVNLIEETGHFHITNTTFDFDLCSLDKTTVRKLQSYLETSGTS
ALR H2O2 inh = inhibitors of human sulfhydryl oxidase ALR. purified ALR, DTT oxidation, H2O2 HRP-luminol luminescence. inhibition, % (no concentration beside the values). P55789. 290,000 compounds, 3.8% hits;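 active = mean and each replicate at 75% or more; inconclusive = only one of the two met; inactive = neither met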;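 also: stock transfer was 7.5 nL into about 7.5 µL; 0% = neutral wells and 100% = wells with inactivated enzyme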
Target sequence (P55789 whole entry, looked up): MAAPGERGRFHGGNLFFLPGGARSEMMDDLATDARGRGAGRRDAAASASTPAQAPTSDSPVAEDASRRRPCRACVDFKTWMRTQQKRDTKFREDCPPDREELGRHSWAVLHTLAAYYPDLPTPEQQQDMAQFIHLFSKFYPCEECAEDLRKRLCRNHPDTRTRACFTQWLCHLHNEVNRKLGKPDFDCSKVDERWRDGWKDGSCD
Vif TR-FRET = HIV-1 Vif–A3G interaction blockers – biochemical, TR-FRET, GST-Vif 1-94, biotin-A3G peptide, dose response retest, primary screen (AID 1117319); TR-FRET GST-Vif / biotin-A3G peptide binding; higher % means a stronger effect; test concentration not given here; strong numbers were not always called active; inhibition, %; hits with a dose series show IC50 in µM; 260,000 compounds, 0.57% hits;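 active = above the screen mean plus three standard deviations and confirmed in dose response; inconclusive = results disagree or hit not tested in dose response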;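 also: Vif residues 1-94 fused to GST binding biotinylated APOBEC3G peptide 110-148; 0% = full assay without inhibitor and 100% = GST in place of GST-Vif; retest series ran down from 100 µM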
rRNA inh HTS = selective bacterial rRNA inhibition in E. coli. E. coli WT GFP vs humanized-ribosome RFP mutants, fluorescence, 24 h; active compounds read low; DMSO median 0, no signal -100. 350,000 compounds, 1.6% hits. GFP signal change (wild-type ribosome), % (no concentration beside the values);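 active = significant combined selectivity score with lowered wild-type GFP, culture density cut under 30%, mutant RFP and density less affected; inactive = any of these conditions unmet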; also: one replicate is shown; some compounds called inactive have numbers as strong as hits
rRNA inh HTS OD600 = further read-out of rRNA inh HTS, marked with its call; OD600 change, %; measured here: OD600 growth;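 optical density of the mix in the first replicate; 0 = DMSO median and -100 = no signal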
rRNA inh HTS RFP = also measured in rRNA inh HTS; calls as there; RFP signal change, %; measured here: RFP humanized mutant strains;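 first replicate; 0 = DMSO median and -100 = no signal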
* hit, by the source's call; i = inactive; ? = inconclusive; nt = no result given. Not all compounds are listed; the hit share may differ from the screen's.

SMILES	E coli growth	FGF22 binding	HNF4A DNA FP	MLL AF4-AF9 inh	ALR H2O2 inh	Vif TR-FRET	rRNA inh HTS	rRNA inh HTS OD600	rRNA inh HTS RFP
Cc1ccc(OCC(=O)Nc2ccon2)c([N+](=O)[O-])c1	0.69	i	-0.7	-0.3	0	nt	11	17	1.5
COC(=O)c1ccc(NC(=O)Nc2ccc(F)c(Cl)c2)cc1	0.6	nt	3.3	nt	-8	-3%	nt	nt	nt
CSc1nc(C)c2cc(C)oc2n1	0.72	nt	1.3	nt	2	15%	nt	nt	nt
C/C=C/c1ccc([C@@H]2[C@@H](CO)N[C@@H]2CN(CC)C(=O)c2ccccn2)cc1	nt	i	nt	4.5	nt	nt	-4	-5	0.8
COc1ccc(-c2nnn(CC(=O)N(CCN3CCOCC3)C(C(=O)NC3CCCC3)c3ccco3)n2)cc1 (stereo not drawn)	0.67	i	-1.0	-1.3	-5	-13%	16	3	4.9
COC(=O)C1=NN(C(=O)c2ccc(C)cc2)C(O)(c2ccc(Cl)cc2)C1 (stereo not drawn)	0.61	nt	nt	nt	35	8%	nt	nt	nt
Cc1ccc(S(=O)(=O)N[C@@H]2C=C[C@@H](CC(=O)NCc3ccc(Cl)c(Cl)c3)O[C@@H]2CO)cc1	nt	i	nt	0.1	nt	nt	-1	4	0.3
O=C(NCC1CCCO1)C1CCCN(c2ncccn2)C1 (stereo not drawn)	0.73	nt	-1.4	nt	-3	15%	nt	nt	nt
O=C(Nc1cccc(-c2ccc(N3CCOCC3)nn2)c1)c1ccc(Cl)cc1	0.66	i	2.2	-2.0	nt	-6%	1	8	-2.5
O=C(CSc1nnc(CNC(=O)c2c(F)cccc2Cl)o1)Nc1ccc2c(c1)OCCO2	0.7	nt	1.2	nt	99*	?	nt	nt	nt
O=C(CNC(=O)N1CC(=O)Nc2ccccc21)NCc1cccc(Cl)c1	0.66	i	0.2	-4.7	-1	nt	5	9	-0.6
Cc1ccc(SCc2ccc(C(=O)Nc3cc([N+](=O)[O-])ccc3C)cc2)cc1	0.69	nt	2.3	nt	1	-1%	nt	nt	nt
CCOC(CCn1c(SCC(=O)NC2CCCC2)nc2ccccc2c1=O)OCC	0.72	i	5.8	-2.0	nt	-10%	10	15	6.0
CCOc1cccc2sc(NC(=O)c3ccc(Br)s3)nc12	0.74	i	2.1	3.9	6	-37%	-9	-4	3.1
CC(=O)c1ccc(N2CCN(C(=O)c3cc(S(=O)(=O)N4CCOCC4)ccc3C)CC2)cc1	0.69	i	-0.8	-1.5	0	nt	-2	1	2.4

In the list so far, 2 have fluorine.
SMILES	E coli growth	FGF22 binding	HNF4A DNA FP	MLL AF4-AF9 inh	ALR H2O2 inh	Vif TR-FRET	rRNA inh HTS	rRNA inh HTS OD600	rRNA inh HTS RFP
COC(=O)c1ccc(NC(=O)Nc2ccc(F)c(Cl)c2)cc1	0.6	nt	3.3	nt	-8	-3%	nt	nt	nt
O=C(CSc1nnc(CNC(=O)c2c(F)cccc2Cl)o1)Nc1ccc2c(c1)OCCO2	0.7	nt	1.2	nt	99*	?	nt	nt	nt

More records
SMILES	E coli growth	FGF22 binding	HNF4A DNA FP	MLL AF4-AF9 inh	ALR H2O2 inh	Vif TR-FRET	rRNA inh HTS	rRNA inh HTS OD600	rRNA inh HTS RFP
CO[C@@H](CN(C)S(=O)(=O)c1ccc(Cl)cc1)[C@H](C)CN(Cc1ccccc1Cl)[C@@H](C)CO	nt	i	nt	-14	nt	nt	-1	-7	4.4
Cc1cc(N)c2cc(NC(=O)/C=C/c3ccccc3Cl)ccc2n1	0.59	nt	37*	nt	-5	-5%	nt	nt	nt
COc1ccc(CN2C(=O)c3ccc(C(=O)O)cc3C2=O)cc1	0.66	i	3.3	-0.8	-5	-1%	-6	0	-2.4
Oc1ccc(Br)cc1C=Nc1ccc2c3c(cccc13)CC2	0.66	i	30	14	nt	21%	30	-3	19
COC(=O)Nc1ccc(S(=O)(=O)N2CCC(C(=O)N3CCCCC3C)CC2)cc1 (stereo not drawn)	0.66	i	-0.5	0.6	11	24%	5	7	-2.3
CSc1nnc(SCC(=O)NC(=O)c2ccccc2)s1	0.66	i	4.3	-8.5	nt	-3%	5	5	-0.3
COc1ccc(/C=C2\Sc3ccc(C(=O)N4CCOCC4)cc3N(C)C2=O)cc1	0.69	i	-0.2	9.7	nt	nt	-15	-11	1.5
C[C@@H]1CCCCO[C@@H](CN(C)S(C)(=O)=O)[C@H](C)CN([C@H](C)CO)C(=O)c2cc(NS(=O)(=O)c3cn(C)cn3)ccc2O1	nt	i	nt	-1.3	nt	nt	0	7	-0.5
COc1cc(/C=C/C(=O)O)cc(OC)c1OC	nt	i	3.8	-1.0	10	18%	2	6	-0.6
C#Cc1ccc([C@H]2C=C(C(=O)NC3CC3)O[C@@H](OCC)[C@@H]2CCCO)cc1	nt	i	2.3	-1.8	1	1%	-4	-2	6.9
Cc1c(C(=O)c2ccc(N(C)C)cc2)c2ccccn2c1CCC#N	0.62	i	-5.7	11	98*	22%	-11	-4	4.2
N#C/C(=C\c1c(N2CCC(C(N)=O)CC2)nc2ccccn2c1=O)C(=O)NC1CCCCC1	0.75	i	2.1	0.3	-7	nt	-1	4	-0.2
O=C(N=c1ccn(-c2nc3ccccc3nc2NS(=O)(=O)c2ccccc2)cc1)c1ccccc1Cl	0.7	i	-16	1.5	0	nt	-43	-71	-8.4
O=C1NC(=S)S/C1=C\c1cc2ccccc2nc1N1CCCCC1	0.61	i	13	2.8	97*	-7%	-13	-35	62
CN1C(=O)[C@H]2[C@@H](/C=C/c3ccccc3)N3C(=O)CN(CC4CC4)C(=O)[C@@]3(C)[C@H]2C1=O	nt	i	3.0	-17	3	nt	-1	11	1.5

One compound at a time, as listed above. Order of values: E coli growth	FGF22 binding	HNF4A DNA FP	MLL AF4-AF9 inh	ALR H2O2 inh	Vif TR-FRET	rRNA inh HTS	rRNA inh HTS OD600	rRNA inh HTS RFP
`O=C(N=c1ccn(-c2nc3ccccc3nc2NS(=O)(=O)c2ccccc2)cc1)c1ccccc1Cl` across the screens: 0.7	i	-16	1.5	0	nt	-43	-71	-8.4
`Cc1c(C(=O)c2ccc(N(C)C)cc2)c2ccccn2c1CCC#N` across the screens: 0.62	i	-5.7	11	98*	22%	-11	-4	4.2
`COc1ccc(/C=C2\Sc3ccc(C(=O)N4CCOCC4)cc3N(C)C2=O)cc1` across the screens: 0.69	i	-0.2	9.7	nt	nt	-15	-11	1.5
`Cc1ccc(SCc2ccc(C(=O)Nc3cc([N+](=O)[O-])ccc3C)cc2)cc1` across the screens: 0.69	nt	2.3	nt	1	-1%	nt	nt	nt

Back to the main list, repeating the 4 entries before the break.
SMILES	E coli growth	FGF22 binding	HNF4A DNA FP	MLL AF4-AF9 inh	ALR H2O2 inh	Vif TR-FRET	rRNA inh HTS	rRNA inh HTS OD600	rRNA inh HTS RFP
N#C/C(=C\c1c(N2CCC(C(N)=O)CC2)nc2ccccn2c1=O)C(=O)NC1CCCCC1	0.75	i	2.1	0.3	-7	nt	-1	4	-0.2
O=C(N=c1ccn(-c2nc3ccccc3nc2NS(=O)(=O)c2ccccc2)cc1)c1ccccc1Cl	0.7	i	-16	1.5	0	nt	-43	-71	-8.4
O=C1NC(=S)S/C1=C\c1cc2ccccc2nc1N1CCCCC1	0.61	i	13	2.8	97*	-7%	-13	-35	62
CN1C(=O)[C@H]2[C@@H](/C=C/c3ccccc3)N3C(=O)CN(CC4CC4)C(=O)[C@@]3(C)[C@H]2C1=O	nt	i	3.0	-17	3	nt	-1	11	1.5
O=C(CCNS(=O)(=O)c1ccc(Cl)cc1)N1CCCCCC1	0.69	i	0.6	-2.5	7	-1%	3	-3	-3.4
Nc1cc(Cl)ccc1Oc1ccc2ccccc2c1	0.64	i	-3.6	-51	-1	3%	-24*	-19*	0.7*
C[C@H](CO)N1C[C@H](C)[C@H](CN(C)S(=O)(=O)c2ccc(F)cc2)Oc2c(NC(=O)Nc3ccc(C(F)(F)F)cc3)cccc2C1=O	nt	i	nt	0.3	nt	nt	1	-2	-1.3
O=C(CCN1C(=O)C2CC=CCC2C1=O)Nc1cccc(S(=O)(=O)N2CCCCC2)c1 (stereo not drawn)	nt	i	-7.0	2.4	1	nt	5	2	-0.4
COc1cc(NC(=O)C(=O)NCCN(C)C)c(OC)cc1Cl	0.68	i	-3.5	-0.2	-4	12%	8	7	-3.3
CC1=C(C)C(OCCCl)N(c2cc(O)c(Cl)cc2F)C1=O (stereo not drawn)	0.73	i	2.1	9.7	3	nt	2	-2	0.6
Cc1ccc2cc3c(N)c(C(=O)Nc4c(C)[nH]c(=O)[nH]c4=O)sc3nc2c1	nt	nt	4.9	nt	96*	12%	nt	nt	nt
CCOC(=O)C1(C)CCCN(C(=O)c2cc(C)oc2C)C1 (stereo not drawn)	nt	i	-3.6	-7.9	nt	nt	14	20	-1.1
Clc1ccc(-c2cc(-c3nnc4n3CCCCC4)c3ccccc3n2)cc1	0.71	nt	-0.7	nt	-28	nt	nt	nt	nt
C[C@@H]1CCCCO[C@@H](CN(C)C(=O)CCC(F)(F)F)[C@@H](C)CN([C@@H](C)CO)C(=O)c2cc(NC(=O)Nc3ccccc3)ccc2O1	nt	i	nt	-1.5	nt	nt	-3	1	0.0
O=C(COC(=O)c1ccccn1)c1ccc([N+](=O)[O-])cc1	0.69	i	4.3	0.1	33	nt	16	14	-1.0
OC(CNCCc1ccc(Cl)cc1Cl)COc1ccccc1 (stereo not drawn)	0.63	i	0.0	2.0	-2	-10%	-11	-37	12
COc1cc(C(=O)Nc2cc(C(F)(F)F)ccc2Cl)cc(OC)c1OC	0.73	nt	-1.5	nt	-6	1%	nt	nt	nt
COc1ccc2c3c(n(C)c2c1)[C@@H](CO)N(C(C)=O)CC31CCN(Cc2cccnc2)CC1	nt	i	nt	-3.5	nt	nt	1	9	-0.4
CC(=O)Nc1ccc(CN(C)c2c(C)nc3ccc(C(=O)N4CCN(C(=O)c5ccco5)CC4)cn23)cc1	nt	i	2.8	-2.1	nt	nt	6	3	1.0
O=C(COc1cccc(C(F)(F)F)c1)NCC(c1ccco1)N1CCCC1 (stereo not drawn)	0.71	i	-1.1	-2.3	nt	nt	2	9	3.8
COc1ccc(Cc2nc3ccc(C(=O)NCc4ncc(C)[nH]4)cc3o2)cc1OC	0.64	i	-3.5	0.0	1	nt	2	5	-4.0
O=C(CC12CC3CC(CC(C3)C1)C2)N1CCCOC1	0.7	nt	1.6	nt	-6	?	nt	nt	nt
CCc1cccc(NS(=O)(=O)c2ccc(-n3cccn3)cc2)c1	0.7	i	4.0	-1.3	-10	4%	-3	-3	2.3
O=C(Cn1cnc2c(nnn2-c2ccccc2)c1=O)NCc1ccc(F)cc1	0.66	i	20	1.9	nt	33%	3	9	1.5
CC(C)(C)OC(=O)C[C@@H]1C/C=C\C[C@@H](CC(=O)NCCO)C(=O)N[C@H](C(C)(C)C)COC1=O	nt	i	3.4	-2.3	-1	nt	12	3	12
CCCCN(C)CCNS(=O)(=O)c1ccc2c(c1)n(C)c(=O)c(=O)n2C	0.67	i	0.7	-3.4	nt	-2%	6	2	-3.1
CO[C@@H]1CN(C)C(=O)c2ccc(NC(=O)C3CCCCC3)cc2OC[C@@H](C)N(C)C[C@@H]1C	nt	i	nt	0.4	nt	nt	1	10	0.3

Printed as active in HNF4A DNA FP, of those listed so far:
SMILES	E coli growth	FGF22 binding	HNF4A DNA FP	MLL AF4-AF9 inh	ALR H2O2 inh	Vif TR-FRET	rRNA inh HTS	rRNA inh HTS OD600	rRNA inh HTS RFP
Cc1cc(N)c2cc(NC(=O)/C=C/c3ccccc3Cl)ccc2n1	0.59	nt	37*	nt	-5	-5%	nt	nt	nt
